# Ub-GFP proteasome = proteasome inhibitors stabilizing ubiquitin-GFP reporter. Ubiquitin-GFP reporter cells, proteasome inhibition, GFP fluorescence; response scale: untreated = 0%, 10 µM MG-132 = 100%. Potency, µM (top dose mostly 45.9 µM), without a hit: top-dose activation (GFP accumulation), most hits filed as activators. 67,000 tested, under 10 active. AID 526; active = well fitted activation curve with a large enough effect, not every such curve was filed as active; inconclusive = small, poorly fitted or top-dose-only effect, or another doubt; inactive = no such curve, though single readings can be large or run the other way; also: potency is read from the fitted curve at half-maximal effect
#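 Proteasome blockade was scored as a rise in GFP-expressing U2OS cells carrying a ubiquitin(G76V)-GFP construct, imaged after 4 hr compound treatment at 37 °C across a 46 uM–2.9 nM series.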
# ERK AVP inh = vasopressin-driven ERK pathway inhibition. HEK293-V1b, vasopressin-stimulated pERK AlphaScreen. Potency, µM (top dose mostly 57.5 µM), for inactives: top-dose activity, negative = inhibition, most hits filed as inhibitors. 0.99% of 72,000 active. AID 995; also: potency is read from the fitted curve at half-maximal effect; % is scaled to controls: 0 for no effect and ±100 for the full control effect; nearly all actives have a fitted effect of over 55% in size
#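 V1b-HEK293 cells; cpd 30 min 37C; 25 nM vasopressin 5 min; lyse 10 min; AlphaScreen beads 5 hr RT. Normalized to DMSO basal and 25 nM vasopressin; AC50 by Hill fit.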
# DNA Pol III inh = blocks replication by bacterial DNA polymerase III holoenzyme; reconstituted DNA polymerase III holoenzyme replication, biochemical; Potency, µM (top dose mostly 57.1 µM), for the others: at the top dose activity change, negative = inhibition; 0.25% of 71,000 active; also: potency is read from the fitted curve at half-maximal effect; % is scaled to controls: 0 for no effect and ±100 for the full control effect
#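 Reconstituted *E. coli* holoenzyme (0.35 nM Pol III, 1 nM beta, 154 nM SSB, 2 nM primase) was preincubated with compound for 15 min at RT. Synthesis on 1.4 nM ssM13Gori ran 35 min, then was stopped with PicoGreen/EDTA and read as dsDNA fluorescence.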
# CRE Fsk mod = alters forskolin-stimulated CRE reporter signaling in CHO cells; AID 662; CHO CRE-bla reporter (cAMP response element driving beta-lactamase), forskolin EC10, beta-lactamase ratio; Potency, µM (top dose mostly 38.2 µM), without a hit: at the highest dose activity change, negative = inhibition, usual class: activators; 2.5% of 71,000 active; active = well fitted activation curve with a large enough effect in the signal ratio, with a control signal flat, not every such curve was filed as active; inconclusive = small, poorly fitted or top-dose-only effect, or effect the other way, or a change in a side signal; the % refers to the signal ratio; also: potency is read from the fitted curve at half-maximal effect; % of control where 0% means no effect
#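 The 460nm/530nm emission ratio after CCF4 loading defined %Activity, from which AC50 values were obtained. CRE-bla CHO cells received compound dilution series together with an EC10 level of NKH 477 for 3 hours at 37 degrees Celsius.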
# 15-hLO inh = 15-hLO (ALOX15) enzyme inhibition. P16050. purified 15hLO-1, xylenol orange hydroperoxide absorbance. Potency, µM (titrated, usually from 57.1 µM), for inactives: top-dose activity change, negative = inhibition, usual class: inhibitors. 1.4% of 74,000 active. AID 887; also: potency is read from the fitted curve at half-maximal effect; % is scaled to controls: 0 for no effect and ±100 for the full control effect; nearly all actives have a fitted effect of over 55% in size
# Target sequence (P16050 whole entry, looked up): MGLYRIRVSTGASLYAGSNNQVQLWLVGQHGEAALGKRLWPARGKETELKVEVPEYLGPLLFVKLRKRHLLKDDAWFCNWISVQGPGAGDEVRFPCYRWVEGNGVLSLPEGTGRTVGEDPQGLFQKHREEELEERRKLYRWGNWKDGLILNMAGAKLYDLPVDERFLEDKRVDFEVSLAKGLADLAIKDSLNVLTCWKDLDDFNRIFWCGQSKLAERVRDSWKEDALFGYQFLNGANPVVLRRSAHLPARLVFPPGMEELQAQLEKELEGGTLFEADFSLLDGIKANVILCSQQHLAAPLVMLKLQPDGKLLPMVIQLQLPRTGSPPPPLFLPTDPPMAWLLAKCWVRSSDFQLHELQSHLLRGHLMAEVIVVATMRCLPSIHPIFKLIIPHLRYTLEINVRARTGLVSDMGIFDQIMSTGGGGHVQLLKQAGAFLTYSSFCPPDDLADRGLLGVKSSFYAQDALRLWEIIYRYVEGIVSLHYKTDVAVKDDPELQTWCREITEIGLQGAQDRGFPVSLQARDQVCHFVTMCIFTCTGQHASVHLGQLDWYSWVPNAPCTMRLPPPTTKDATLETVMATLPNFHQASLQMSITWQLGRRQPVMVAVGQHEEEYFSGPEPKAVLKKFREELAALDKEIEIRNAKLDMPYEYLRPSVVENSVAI
#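 Purified human 15hLO-1 (40 nM) in 25 mM Hepes pH 7.5, 0.01% Triton X-100, preincubated 15 min RT with compound, then 50 uM arachidonic acid for 6 min. Hydroperoxide read by ferrous/xylenol orange, 30 min; 573/405 nm absorbance ratio gave progress.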
# Hsp90 Hop PPI = changes Hsp90-Hop TPR2A binding signal, up or down; AlphaScreen TPR2A-His6 binding biotin-Hsp90 C-terminal peptide; Potency, µM (highest dose often 57 µM), for inactives: top-dose activity change, negative = inhibition; 0.44% of 71,000 active; AID 595; active = well fitted curve in either direction with a large enough effect; inconclusive = small, poorly fitted or top-dose-only effect, or another doubt; also: potency is read from the fitted curve at half-maximal effect; % is scaled to controls: 0 for no effect and ±100 for the full control effect; many of its hits are not listed in these tables
# HBB splice mod = modulators of hemoglobin beta chain splicing. HBB splicing reporter cell assay, activation; EGFP reporter with mutant IVS2-654 intron; response scale: normalised to 500 nM splice-correcting PNA. Potency, µM (titrated, usually from 46.1 µM), inactives show top-dose activation, actives largely listed as activators. 0.06% of 65,000 active. AID 925; also: potency is read from the fitted curve at half-maximal effect; 0% is about no effect
#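 Compounds were applied for 2 days to HeLa EGFP-654 cells, 500/well in Optimem with 2% FCS. The reporter's EGFP is disrupted by mis-splicing of beta-globin intron IVS2-654. Readout: summed well GFP fluorescence from 488 nm laser scanning; reference was 500 nM antisense […] 654 PNA.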
# GFP derepression = epigenetic GFP locus derepression in mouse cells; mouse C127i GFP locus derepression, cytometry, 30 h; Potency, µM (doses to about 46.1 µM), for the others: top-dose GFP derepression (activation); 0.09% of 68,000 active; AID 597; also: % of control where 0% means no effect
#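 Locus derepression in mouse mammary C127i cells whose integrated CMV-GFP reporter is normally silent; GFP expression after 30 h compound treatment was quantified by counting fluorescent cells.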
# Numbers without * were called inactive; ? = inconclusive; nt = no result given; & = joins results of further samples; [ ] = another dose, or the depositor's remark. Unless noted, calls follow the shape of the dose curve; as a rule, active = well fitted curve in the direction sought with a large enough effect; inconclusive = small, poorly fitted or top-dose-only effect, or another doubt; inactive = no such curve, though single readings can be large; an effect the other way counts as inactive or inconclusive.
SMILES,Ub-GFP proteasome,ERK AVP inh,DNA Pol III inh,CRE Fsk mod,15-hLO inh,Hsp90 Hop PPI,HBB splice mod,GFP derepression
Cc1cc(C(=O)COC(=O)c2n[nH]c3ccccc23)c(C)n1C,0.0%,?,3.0%,-23.9%,-10.9%,-13.9%,1.4%[57.5 µM],4.3%
NC[C@H](O)c1ccc(O)c(O)c1,5.3%&0.3%,?,-3.6%&4.4%,-3.8%&-0.5%,9.0%&4.9%,-11.9%&-12.6%,2.2%&0.4%,0.0%&1.1%
COC(=O)[C@H]1[C@@H]2C[C@@H]3c4[nH]c5ccccc5c4CCN3C[C@H]2CC[C@H]1O,nt,1.0%,nt,nt,11.3%[25.6 µM],nt,nt,nt
COc1cc2nc(N(C)CCCNC(=O)[C@@H]3CCCO3)nc(N)c2cc1OC,-2.1%[20.5 µM],3.1%[25.7 µM],-3.3%[25.6 µM],0.6%[17.1 µM],17.3%[25.6 µM],-0.8%[26 µM],2.8%[20.6 µM],10.2%[20.6 µM]
CC(C)NC[C@@H](O)COc1ccc(CCOCC2CC2)cc1,1.3%,-16.4%,-12.2%,-22.1%,-21.6%[25.6 µM],-3.8%,2.0%[20.6 µM],6.7%
Cc1ncc(C[n+]2csc(CCO)c2C)c(N)n1,4.4%[20.5 µM],-40.8%[25.7 µM],0.7%[25.6 µM],2.6%[17.1 µM],15.9%[25.6 µM],-3.0%[26 µM],-0.8%[20.6 µM],1.7%[20.6 µM]
CCOC(=O)C1=C(C)NC(C)=C(C(=O)OC)C1c1cccc(Cl)c1Cl (stereo not given),nt,nt,nt,nt,nt,nt,nt,-6.0%[20.6 µM]
C[C@@H]1C[C@@H]2[C@H]3CCC4=CC(=O)C=C[C@]4(C)[C@]3(F)[C@@H](O)C[C@]2(C)[C@@]1(O)C(=O)CO,8.5%[20.5 µM],-17.8%[25.7 µM],-2.7%[25.6 µM],-4.7%[17.1 µM],12.5%[25.6 µM],-3.9%[26 µM],0.3%[20.6 µM],1.0%[20.6 µM]
C[C@]12C=CC(=O)C=C1CC[C@@H]1[C@H]3C[C@@H](O)[C@](O)(C(=O)CO)[C@@]3(C)C[C@H](O)[C@]12F,-2.1%[20.5 µM],10.0%[25.7 µM],-4.2%[25.6 µM],0.3%[17.1 µM],14.1%[25.6 µM],-2.9%[26 µM],-0.5%[20.6 µM],-0.7%[20.6 µM]
O=C(O)c1cccnc1,4.3%[20.5 µM],-22.7%,-8.1%[25.6 µM],-3.7%[17.1 µM],-4.8%,-4.1%[26 µM],-0.6%[20.6 µM],14.2%[20.6 µM]
NCCCC[C@H](N[C@@H](CCc1ccccc1)C(=O)O)C(=O)N1CCC[C@H]1C(=O)O,5.2%[20.5 µM],3.7%[25.7 µM],-4.1%[25.6 µM],7.2%[17.1 µM],12.3%[25.6 µM],-0.3%[26 µM],-0.1%[20.6 µM],3.4%[20.6 µM]
O=C(CCCN1CCC(O)(c2ccc(Cl)cc2)CC1)c1ccc(F)cc1,9.1%,9.4%,-5.4%,?,?,1.1%,-0.5%[20.6 µM],11.5%[20.6 µM]
C[C@@H]1[C@H](C)CC[C@@]2(C(=O)O)CC[C@]3(C)C(=CC[C@H]4[C@@]5(C)CC[C@@H](O)C(C)(C)[C@@H]5CC[C@@]43C)[C@@H]12,1.1%[20.5 µM],-6.8%[25.7 µM],-5.5%[25.6 µM],4.5%[17.1 µM],-0.1%[25.6 µM],-10.1%[26 µM],0.5%[20.6 µM],3.4%[20.6 µM]
CS(=O)(=O)Nc1ccc([N+](=O)[O-])cc1Oc1ccccc1,2.1%[20.5 µM],-17.9%,-2.5%[25.6 µM],0.0%[17.1 µM],-27.0%,0.6%[26 µM],0.4%[20.6 µM],-1.7%[20.6 µM]
Cc1ccnc2c1NC(=O)c1cccnc1N2C1CC1,4.8%,1.3%&-3.9%,-0.3%&-4.5%,?,-1.5%&4.5%,-0.5%&-2.0%,4.4%[57.5 µM],0.0%
CCN[C@@H]1C[C@H](N)[C@H](O[C@H]2OC(CN)=CC[C@H]2N)[C@@H](O)[C@H]1O[C@H]1OC[C@@](C)(O)[C@@H](NC)[C@@H]1O,2.0%[20.5 µM],19.6%[25.7 µM],-0.6%[25.6 µM],-3.9%[17.1 µM],10.6%[25.6 µM],-4.7%[26 µM],2.0%[20.6 µM],1.7%[20.6 µM]
C[C@H]1C[C@@H]2[C@H]([C@@H](O)C[C@@]3(C)[C@H]2CC[C@]3(O)C(=O)CO)[C@@]2(C)C=CC(=O)C=C12,nt,nt,nt,nt,nt,nt,nt,-1.6%[20.6 µM]
C[C@]12CCC(=O)C=C1CCC1C2C(O)C[C@]2(C)C1CC[C@]2(O)C(=O)CO (stereo not given in full),nt,3.2%,nt,nt,-1.8%,nt,nt,nt
Cc1cccc(-c2nnc(-c3ccc(N)cc3)o2)c1,-1.3%,-13.0%,-7.8%,10.4%,-14.3%,0.9%,-2.0%,4.0%
CCc1c(C)[nH]c2c1C(=O)C(CN1CCOCC1)CC2 (stereo not given),nt,-8.2%,nt,nt,4.2%,nt,nt,nt
CN(C)CC[C@H](c1ccc(Cl)cc1)c1ccccn1,-6.4%[20.5 µM],1.7%[25.7 µM],-0.6%[25.6 µM],-11.6%[17.1 µM],15.2%[25.6 µM],-3.5%[26 µM],1.1%[20.6 µM],-1.7%[20.6 µM]
CC(C)NCC(O)COc1ccc(CCOCC2CC2)cc1 (stereo not given),nt,nt,nt,nt,nt,nt,nt,-6.0%[20.6 µM]
CC[C@]1(O)CC2CN(CCc3c([nH]c4ccccc34)[C@@](C(=O)OC)(c3cc4c(cc3OC)N(C=O)[C@H]3[C@@](O)(C(=O)OC)[C@H](OC(C)=O)[C@]5(CC)C=CCN6CC[C@]43[C@@H]65)C2)C1 (stereo not given in full),nt,nt,nt,nt,nt,nt,nt,2.4%[20.6 µM]
O=C(O)CN(Cc1ccccc1)S(=O)(=O)c1ccc(F)cc1,11.4%,-5.1%,-0.7%,-7.7%,5.2%,0.9%,0.5%,2.7%
N=C(N)c1ccc(OCCCCCOc2ccc(C(=N)N)cc2)cc1 (tested in a mixture with another compound),-8.1%,-17.7%,5.5%,-10.1%,14.9%,-11.7%,-0.8%,-1.1%
CC(=O)O[C@]1(C(C)=O)CC[C@@H]2[C@@H]3C=C(C)C4=CC(=O)CC[C@@]4(C)[C@H]3CC[C@]21C,1.1%[20.5 µM],35.5%[activator][25.7 µM],1.0%[25.6 µM],?,-7.4%[25.6 µM],?,-1.4%[20.6 µM],0.0%[20.6 µM]
CC[N+](CC)(CC)CC,4.6%,19.5%,-7.4%,-1.3%,-1.2%,-8.1%,1.6%,-2.2%
Nc1ccc2c3c(cccc13)C(=O)NC2=O,-1.6%,-12.3%,49.4%,?,-7.9%,-3.6%,31.6µM*,1.1%
CC1=C(/C=C/C(C)=C/C=C/C(C)=C\C(=O)O)C(C)(C)CCC1,nt,0.8%,nt,nt,-1.7%,nt,nt,nt
CCN(CC)CCOc1ccc(/C(=C(\Cl)c2ccccc2)c2ccccc2)cc1,6.1%[20.5 µM],?,-2.6%[25.6 µM],-0.9%[17.1 µM],-4.4%,-5.9%[26 µM],-2.2%[20.6 µM],-1.7%[20.6 µM]
C/C=C\c1ccc(OC)cc1,nt,11.9%,0.9%,-7.7%,-27.8%,0.8%,0.6%,nt
c1ccc2c(Nc3ccncc3)nc(-c3ccc4c(c3)OCO4)nc2c1,4.9%,?,-10.9%,12.6µM*,-0.4%,-7.6%,-0.7%,-2.9%[9.22 µM]
CC(C)(C)NCC(O)c1ccc(O)c(CO)c1 (stereo not given),nt,-4.5%,nt,nt,-2.6%,nt,nt,nt
CC(=O)c1ccc2c(c1)N(CCCN1CCC(CCO)CC1)c1ccccc1S2,8.5%[20.5 µM],13.1%[25.7 µM],-3.0%[25.6 µM],7.2%[17.1 µM],7.6%[25.6 µM],-10.2%[26 µM],0.3%[20.6 µM],-1.7%[20.6 µM]
Nc1ncnc2c1ncn2[C@@H]1O[C@H](COP(=O)(O)O)[C@@H](O)[C@@H]1O,2.0%[20.5 µM],-25.6%[25.7 µM],-4.5%[25.6 µM],4.3%[17.1 µM],7.1%[25.6 µM],-1.0%[26 µM],0.7%[20.6 µM],-0.5%[20.6 µM]
CCCc1cc(=O)[nH]c(=S)[nH]1,6.4%[20.5 µM],9.1%,-5.0%,-11.9%,-11.1%,-3.2%,0.0%,1.7%&3.4%[20.6 µM]

# 4 compounds drawn at random from those above, as already listed:
SMILES,Ub-GFP proteasome,ERK AVP inh,DNA Pol III inh,CRE Fsk mod,15-hLO inh,Hsp90 Hop PPI,HBB splice mod,GFP derepression
c1ccc2c(Nc3ccncc3)nc(-c3ccc4c(c3)OCO4)nc2c1,4.9%,?,-10.9%,12.6µM*,-0.4%,-7.6%,-0.7%,-2.9%[9.22 µM]
Nc1ncnc2c1ncn2[C@@H]1O[C@H](COP(=O)(O)O)[C@@H](O)[C@@H]1O,2.0%[20.5 µM],-25.6%[25.7 µM],-4.5%[25.6 µM],4.3%[17.1 µM],7.1%[25.6 µM],-1.0%[26 µM],0.7%[20.6 µM],-0.5%[20.6 µM]
CC(C)(C)NCC(O)c1ccc(O)c(CO)c1 (stereo not given),nt,-4.5%,nt,nt,-2.6%,nt,nt,nt
CCCc1cc(=O)[nH]c(=S)[nH]1,6.4%[20.5 µM],9.1%,-5.0%,-11.9%,-11.1%,-3.2%,0.0%,1.7%&3.4%[20.6 µM]

# A portion of the library; rates above refer to the full screens.
